Source: PubChem (Johns Hopkins Ion Channel Center)
KCNQ2 inh: KCNQ2 potassium channel inhibitors, primary screen, cell-based, CHO-K1, FluxOR thallium flux, B-score (AID 2156) | O88943 | 20 min; stronger effect = lower value; only compounds with negative scores are shown here; some inactives read as strong as hits | B-score at 10 µM | 1.1% of 310,000 active;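 active = fluorescence ratio B-score at most minus 3 library SDs, with starting brightness B-score within 2 library SDs, cut at about -5.5 in these data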
Target sequence (O88943 whole entry, looked up): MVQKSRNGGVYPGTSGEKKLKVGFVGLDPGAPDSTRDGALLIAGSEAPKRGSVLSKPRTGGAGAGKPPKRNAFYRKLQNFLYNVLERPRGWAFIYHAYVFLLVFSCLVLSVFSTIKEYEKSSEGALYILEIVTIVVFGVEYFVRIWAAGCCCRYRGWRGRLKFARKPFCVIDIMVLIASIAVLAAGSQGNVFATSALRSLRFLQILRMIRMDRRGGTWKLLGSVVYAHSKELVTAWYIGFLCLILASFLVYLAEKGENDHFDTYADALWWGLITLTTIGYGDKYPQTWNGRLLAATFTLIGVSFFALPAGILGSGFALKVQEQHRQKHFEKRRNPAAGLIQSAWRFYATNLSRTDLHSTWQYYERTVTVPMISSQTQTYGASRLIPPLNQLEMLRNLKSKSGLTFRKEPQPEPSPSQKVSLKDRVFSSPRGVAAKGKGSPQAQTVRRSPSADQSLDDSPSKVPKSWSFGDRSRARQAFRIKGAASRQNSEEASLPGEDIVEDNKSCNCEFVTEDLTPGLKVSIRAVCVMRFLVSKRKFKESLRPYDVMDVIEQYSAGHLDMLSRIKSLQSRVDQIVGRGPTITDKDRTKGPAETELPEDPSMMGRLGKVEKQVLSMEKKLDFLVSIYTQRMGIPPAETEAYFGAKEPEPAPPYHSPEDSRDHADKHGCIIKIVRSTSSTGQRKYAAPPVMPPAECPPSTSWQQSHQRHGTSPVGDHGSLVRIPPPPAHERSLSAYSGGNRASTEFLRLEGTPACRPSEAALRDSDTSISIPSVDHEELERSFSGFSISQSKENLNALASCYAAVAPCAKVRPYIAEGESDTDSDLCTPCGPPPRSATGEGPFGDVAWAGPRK
KCNQ2 inh baseline: also measured in KCNQ2 inh; calls as there; B-score; measured here: initial fluorescence intensity artifact check;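 brightness before thallium and not channel activity; 0 = typical well and far values either way flag optical interference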
* hit, by the source's call; i = inactive. These rows are one share of the data, so the mix of outcomes need not match the whole.

Sequence of screens – KCNQ2 inh, KCNQ2 inh baseline
> O=C(Nc1cccnc1)c1ccccc1Oc1ccccc1
 : i, -0.51
> CC(C)CCNC(=O)C1CCN(c2nc3ccccc3o2)CC1
 : i, -0.98
> CC1CCCC(NC(=O)CCNC(=O)c2ccc([N+](=O)[O-])cc2)C1C (stereo unspecified)
 : i, 0.01
> CC(=O)Nc1cc(C(=O)N2CCc3ccccc3C2)ccc1Sc1ccc(Cl)cc1
 : i, 1.9
> O=C(NCC(c1ccco1)N1CCCC1)c1ccccc1F (stereo unspecified)
 : i, -0.03
> COc1ccc(-c2cc(C(=O)N/N=C/c3sccc3C)c3ccccc3n2)c(OC)c1
 : i, -0.67
> O=C(OCc1nnc(-c2ccccc2)o1)c1ccc2c(c1)OCO2
 : i, -0.74
> CCCCSc1nnc(-c2cc(Br)ccc2N)c(=O)[nH]1
 : i, -0.07
> N#C/C(=C\c1ccc(F)c(Br)c1)C(=O)NC1CC1
 : i, -1.4
> CC1(C)Cc2cccc(Oc3ccc(S(=O)(=O)N4CCCC4)cn3)c2O1
 : i, 1.3
> CCOc1cc(/C=N/NC(=O)CN2CCCCC2)ccc1OCc1ccccc1
 : i, -0.63
> Oc1ccc(N=Nc2ccc3ccccc3c2)cc1
 : i, -0.76
> CC1CC(C)CN(S(=O)(=O)c2cccc(C(=O)N3C(=O)c4cccc(N)c4C3=O)c2)C1 (stereo unspecified)
 : i, -0.42
> CN(C)C(CNC(=O)c1cc(S(=O)(=O)N(C)Cc2ccccc2)ccc1Cl)c1ccco1 (stereo unspecified)
 : i, -0.49
> COc1ccc(/C=C/c2nc(S(=O)(=O)c3ccccc3)c(N(C)C)o2)cc1OC
 : i, -0.11
> O=C(O)CN1C(=O)/C(=C2\SC(=S)N(C(Cc3ccccc3)C(=O)O)C2=O)c2ccccc21 (stereo unspecified)
 : i, -0.48
> OC(CN1CCN(c2ccccc2)CC1)c1c[nH]c2ccccc12 (stereo unspecified)
 : i, 0.45
> O=C(CSc1ccccc1C(=O)O)NC1CCCCCC1
 : i, -0.41
> Cc1ccc(C)c(Cn2c(CN(C)Cc3ccccc3)nc3c2c(=O)n(C)c(=O)n3C)c1
 : i, -0.98
> CN(CC1CCCN(CCc2ccc(F)cc2)C1)C(=O)CCC(F)(F)F (stereo unspecified)
 : i, 0.21
> CC(NC(=O)c1csc2ccccc12)C1CCCO1 (stereo unspecified)
 : i, -1.4
> CCC/C=C(\CCC)C(NC(=O)Cc1ccccc1)c1ccc(C(=O)OC)cc1 (stereo unspecified)
 : -7.4*, 0.23*
> O=C(Cc1cccs1)NCCSc1c(-c2ccc(Cl)cc2)[nH]c2ccccc12
 : -7.1*, -0.2*
> COc1ccc(C)c2sc(=NC(=O)C(C)C)n(C)c12
 : i, -1.1
> Cc1cccc(N2CCN(C(=O)CSCc3c(C)noc3C)CC2)c1C
 : -6*, 0.24*
> Cc1ccc(NS(=O)(=O)c2ccc3c(c2)CCN3C(=O)CCC(=O)O)cc1Cl
 : i, 0.33
> Cc1ccc(C)c(NC(=O)Cn2cnc3c(oc4ccccc43)c2=O)c1
 : i, -0.18
> COc1cccc(NC(=S)N(Cc2ccc(Cl)cc2)Cc2ccc(C(=O)O)cc2)c1
 : i, 0.22
> COC(=O)c1sc2ccc(C)cc2c1C(=O)OC
 : i, -2
> Cn1nc(C(=O)OCC(=O)NC2CCS(=O)(=O)C2)c2ccccc2c1=O (stereo unspecified)
 : i, -0.03
> COc1cccc(CN2C(=O)CCC2(C)C(=O)NCCc2ccc(OC)c(OC)c2)c1 (stereo unspecified)
 : i, 0.58
> c1ccc(-c2csc3ncnc(NCc4ccccn4)c23)cc1
 : i, 0.24
> O=[N+]([O-])c1ccc(C(O)CN2CCN(C/C=C/c3ccccc3)CC2)cc1 (stereo unspecified)
 : i, -0.05
> CCN(CC)CCCNC(=O)c1ccc(N2CCCCC2)c(NS(=O)(=O)c2ccc(C)cc2)c1
 : i, 1.6
> Cc1ccc(NC(=O)c2c(C)nc3sc(C(=O)NC4CCCC4)c(N)c3c2-c2ccco2)c(C)c1
 : i, 0.17
> CCn1c(CNC(=O)c2ccc(OC)c(OC)c2)nnc1SCC(=O)Nc1ccccc1
 : i, 1
> O=C(O)c1sc2cc(C(F)(F)F)cnc2c1-c1ccccc1
 : i, 0.16
> O=C1COc2ccc(-c3csc(=Nc4ccc(OC(F)F)cc4)n3CC3CCCO3)cc2N1 (stereo unspecified)
 : i, -1.8
> O=C(c1cccc([N+](=O)[O-])c1)N1CCc2ccccc21
 : i, -0.33
> Cc1ccn2c(/C=N/OCc3ccc(F)cc3)c(-c3ccc(Cl)cc3)nc2c1
 : -9*, -1.4*
> O=C(Nc1ccc2[nH]c(=O)[nH]c2c1)Nc1ccc(F)cc1F
 : i, 0.29
> COc1ccc(C(=O)NNC(=O)c2ccc(C(C)(C)C)cc2)cc1
 : i, 0.73
> CCC(C)n1c(SCc2ccccc2)nc2ccsc2c1=O (stereo unspecified)
 : i, 0.24
> O=C(CCS(=O)(=O)Cc1ccccc1)Nc1ncc([N+](=O)[O-])s1
 : i, 0.71
> O=C(O)c1cccc(-n2cccc2C=C2C(=O)c3ccccc3C2=O)c1
 : i, -0.71
> O=C(Nc1cccc2cccnc12)c1ccc(Cl)cc1Cl
 : i, 2.8
> Cc1ccc(-n2c(C)cc(C(=O)CN3C(=O)C(=O)N(C4CCCC4)C3=O)c2C)cc1
 : i, -1
> Cc1ccc(NS(=O)(=O)c2cc(Br)cnc2N)cc1C
 : i, 0.26
> Cc1ccc(C)c(Cn2c(=O)n(CCCC(=O)NCc3ccco3)c(=O)c3sccc32)c1
 : i, 0.18
> Cc1nc2ccccc2c(=O)n1NC(=O)c1cc(Br)ccc1Cl
 : i, 0.1
> COCCNC(=O)CC(=O)N/N=C/c1cccc(C(=O)OC)c1
 : i, 0.41
> COc1ccc(C(CNC(=O)c2ccc(OCC3CCCO3)cc2)N2CCOCC2)cc1 (stereo unspecified)
 : i, 0.27
> O=C(Nc1ccc(Nc2ccccc2)cc1)c1ccc(Cl)cc1[N+](=O)[O-]
 : i, -0.26
> CCOC(=O)c1cc2occc2n1CC(=O)N1CCCc2ccccc21
 : i, 0.43
> CCOC(=O)CCc1cccc2c1CCC2=O
 : i, 2
> CS(=O)(=O)N1CCN(c2ccc([N+](=O)[O-])c(NCc3ccc(Cl)cc3)c2)CC1
 : i, 1.8
> CC(=O)Nc1ccc(CNC(=O)C[N+]2(C)CCOCC2)cc1
 : i, 0.06
> COc1ccccc1C(CC(=O)c1ccccc1)CC(=O)c1ccccc1
 : i, 0.98
> CCN1CCN(C(=O)CN(C)S(=O)(=O)c2ccc3ccccc3c2)CC1
 : i, 1.6
> CCN(CC)S(=O)(=O)c1ccc2oc(C(=O)O)c(C)c2c1
 : i, 0.66

Some of the entries above in a different format:
structure: CC(=O)Nc1ccc(CNC(=O)C[N+]2(C)CCOCC2)cc1
  KCNQ2 inh = i
  KCNQ2 inh baseline = 0.06

structure: COc1ccccc1C(CC(=O)c1ccccc1)CC(=O)c1ccccc1
  KCNQ2 inh = i
  KCNQ2 inh baseline = 0.98

(further entries)
Sequence of screens – KCNQ2 inh, KCNQ2 inh baseline
> CCOC(=O)c1cc(C(=O)c2cc(Cl)ccc2O)coc1=N
 : i, -0.76
> CCOc1ccc(C2=CSC3=NCCN23)cc1Cl
 : i, 0.05
> Cc1ccc2c(c1)CN1CN2Cc2cc(C)ccc21
 : i, -0.06
> OCCNc1nc(-c2ccccc2)c2cc(Cl)ccc2n1
 : i, -0.62
> CCOc1ccc(CNC(=O)c2ccc(Sc3ccc(Cl)cc3)c(NC(C)=O)c2)cc1OC
 : i, 0.81
> COc1ccccc1OCCNC(=O)C1CC(=O)N(c2ccc3c(c2)OCCO3)C1 (stereo unspecified)
 : i, 0.7
> COC(=O)c1cc(NC(=O)c2nn(C)c(=O)c3ccccc23)cc(C(=O)OC)c1
 : i, -0.23
> CN1CCC(OC(c2ccccc2)c2ccccc2)CC1
 : i, 1.4
> O=C(O)CCc1nn2c3ccccc3n(Cc3ccccc3F)c2nc1=O
 : i, 0.67
> CC(=O)N1N=C(c2ccncc2)OC12CCCCCC2
 : i, -1.9
> Cc1[nH]c2ccccc2c1C(=O)C(=O)N1c2ccccc2CC1C (stereo unspecified)
 : i, 0.95
> CCCCN(CCCC)S(=O)(=O)c1ccc(NC(=O)c2cccs2)cc1
 : i, 1.2
> O=C(CSc1nnc(CNC(=O)c2ccco2)o1)c1ccc(Cl)cc1
 : i, 0.52
> O=C(CN1C(=O)c2ccccc2C1=O)Nc1sc2c(c1C(=O)NCc1ccco1)CCCC2
 : i, -1.5
> Cc1ccc(CN2CCSc3ccc(C(=O)N4CCOCC4)cc32)cc1
 : i, 0.91

Sorted by value in KCNQ2 inh baseline (descending): 4 of the compounds above
canonical_smiles	KCNQ2 inh baseline
O=C(CSc1nnc(CNC(=O)c2ccco2)o1)c1ccc(Cl)cc1	0.52
CCOc1ccc(C2=CSC3=NCCN23)cc1Cl	0.05
COC(=O)c1cc(NC(=O)c2nn(C)c(=O)c3ccccc23)cc(C(=O)OC)c1	-0.23
CC(=O)N1N=C(c2ccncc2)OC12CCCCCC2	-1.9

Next entries follow:
Sequence of screens – KCNQ2 inh, KCNQ2 inh baseline
> Cc1cccc(C)c1NC(=S)NNc1ncc(C(F)(F)F)cc1Cl
 : i, 0.31
> Cc1cc(C)c(S(=O)(=O)N2CCCCCC2)cc1Br
 : i, 1.2
> Cc1cc(NC(=O)C(C)SCC(=O)Nc2nnc(CC(C)C)s2)no1 (stereo unspecified)
 : i, -0.34
> Nc1nnc(SCC(=O)c2ccco2)s1
 : i, -0.16
> COc1ccc(-c2[nH]c(-c3ccc(SC)cc3)nc2SCC(=O)Nc2nccs2)cc1
 : i, 0.68
> CN1CCN(C(=O)c2cnn(-c3ccccc3)c2NC(=O)c2ccccc2F)CC1
 : i, 0.16
> COc1ccccc1N1CCN(S(=O)(=O)c2cnc[nH]2)CC1
 : i, 0.14
> CC(C)(C)CC(C)(C)NCC(=O)Nc1c2c(nc3ccccc13)CCC2
 : i, 0.43
> CCOC(=O)c1c(S(=O)(=O)NCCc2ccccc2)c(C)n(C)c1C
 : i, 1.8
> CCOC(=O)C1(CCCc2ccccc2)CCN(C(=O)c2cncs2)CC1
 : i, -0.81
> CC(C)CNC(=S)N1CCC(c2nc(-c3ccc(F)cc3)no2)CC1
 : i, -0.71
> Cc1ccc(N(C(=O)c2snc(C(N)=O)c2N)C(C(=O)NCC2CCCO2)c2ccc3ncccc3c2)cc1 (stereo unspecified)
 : i, -2
> Cc1ccc(N(CC(O)CN2CCOCC2)S(=O)(=O)c2ccc([N+](=O)[O-])cc2)cc1 (stereo unspecified)
 : i, -0.49
> COc1ccc(Cl)cc1NC(=O)c1cc(-c2cc(C)ccc2O)n[nH]1
 : i, -0.15
> CCc1nnc(NC(=O)c2cc(Cl)ccn2)s1
 : i, 1.5
> O=C(O)Cn1nnc2ccccc21
 : i, -1.7
> COc1cccc(CCNC(=O)c2ccc(OC)c(OC3CCN(C(C)C)CC3)c2)c1
 : i, -0.67
> O=C(c1ccccc1NS(=O)(=O)c1ccc2c(c1)OCCO2)N1CCOCC1
 : i, 0.26
> COc1ccc(C(=O)Nn2c(SCC(=O)c3ccc(Cl)cc3)nc3ccccc3c2=O)cc1
 : i, 0.98
> CC(Oc1ccc(Cl)cc1)c1ccn[nH]1 (stereo unspecified)
 : i, 1.2
> CC(=O)Nc1cccc(NC(=O)CSc2ncc(C(=O)Nc3ccccc3)c(=O)n2C)c1
 : i, -0.01
> CC(=O)N1CCOc2ccc(S(=O)(=O)NCCc3ccccc3)cc21
 : i, 1.1
> COc1ccc(N2CCN(C(=O)CCc3ccccc3OC)CC2)cc1
 : i, 0.56
> CN(C)/C=N/S(=O)(=O)c1ccc(Cl)cc1
 : i, -0.11
> Cc1ccc(S(=O)(=O)N2CCC(NC(=O)c3cccc(F)c3)CC2)cc1
 : i, 0.23
> O=C(NCc1cn(-c2ccccc2)nc1-c1ccccc1)c1cc([N+](=O)[O-])cc([N+](=O)[O-])c1
 : i, -0.65
> O=C(O)CCC(=O)N1CCN(c2ccc(C(=O)c3ccc(F)cc3)cc2)CC1
 : i, 0.05
> N#Cc1c(-c2ccccc2)c(-c2ccccc2)nn(CC(=O)NNC(=O)Nc2ccc(Cl)c(Cl)c2)c1=O
 : i, -1.5
> CCOC(=O)c1ccc(NC(=O)CSCc2ccco2)cc1
 : i, 3.4
> O=C(COc1ccc(Cl)cc1Cl)N1CCN(C(=O)c2ccco2)CC1
 : i, 0.02
> C=CCSc1nc2[nH]ncc2c(=O)[nH]1
 : i, -0.08
> O=C(CSc1nnc(-c2ccccn2)n1Cc1ccco1)c1ccc(Cl)cc1
 : i, -0.88
> O=C(NC1C2CC3CC(C2)CC1C3)c1ccc2c(c1)OCO2 (stereo unspecified)
 : i, 0.57
> COC(=O)C1C(O)=C(C=NCc2ccccc2)C(=O)CC1(C)C (stereo unspecified)
 : i, 1.2
> CCN(CC)S(=O)(=O)c1cccc(-c2nnc(SCC(=O)c3ccc(Cl)s3)n2C)c1
 : i, 0.59
> Cc1nn2c(N)c(C#N)cnc2c1-c1ccc(Cl)cc1
 : i, 0.61
> CCCc1cc(=O)[nH]c(SCC(=O)Nc2ccc([N+](=O)[O-])cc2C#N)n1
 : i, -0.52
> Cn1cnnc1SCC(=O)NC1CCCN(Cc2ccc(Cl)cc2)C1 (stereo unspecified)
 : i, 0.11
> O=C(COc1ccc(F)cc1Cl)Nc1ccc(N2CCOCC2)cc1N1CCOCC1
 : i, 0.96
> Nc1cnn(Cc2ccc(F)cc2)c1
 : i, 0.01
> COc1ccc(NC(=O)CC2C(=O)NCCN2C(=O)c2ccccc2)cc1 (stereo unspecified)
 : i, 0.57
> COc1ccc(-c2nc(N3CCCCCC3)sc2C(=O)c2ccccc2)cc1
 : i, -1
> CSc1nncc(/C(C)=N\Nc2cccc(C)c2)n1
 : i, 0.85
> CCC1CCCCN1C(=O)CSc1nc2ncccc2[nH]1 (stereo unspecified)
 : i, -0.92
> CC1Cc2ccccc2N1C(=S)NC1CCCC1 (stereo unspecified)
 : i, -0.88
